RecA intein inh: inhibitors of M. tuberculosis RecA intein splicing; P9WHJ3; cell-free RecA intein splicing, fluorescence; inhibition, %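 (about 9 µM by stock and volumes)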; 290,000 tested, 0.75% active; AID 2221; in the data active = inhibition above about 30%; inconclusive = no clear call, values can overlap the other calls;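 also: 0% = vehicle wells and 100% = reference inhibitor control wells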
Target sequence (P9WHJ3 whole entry, looked up): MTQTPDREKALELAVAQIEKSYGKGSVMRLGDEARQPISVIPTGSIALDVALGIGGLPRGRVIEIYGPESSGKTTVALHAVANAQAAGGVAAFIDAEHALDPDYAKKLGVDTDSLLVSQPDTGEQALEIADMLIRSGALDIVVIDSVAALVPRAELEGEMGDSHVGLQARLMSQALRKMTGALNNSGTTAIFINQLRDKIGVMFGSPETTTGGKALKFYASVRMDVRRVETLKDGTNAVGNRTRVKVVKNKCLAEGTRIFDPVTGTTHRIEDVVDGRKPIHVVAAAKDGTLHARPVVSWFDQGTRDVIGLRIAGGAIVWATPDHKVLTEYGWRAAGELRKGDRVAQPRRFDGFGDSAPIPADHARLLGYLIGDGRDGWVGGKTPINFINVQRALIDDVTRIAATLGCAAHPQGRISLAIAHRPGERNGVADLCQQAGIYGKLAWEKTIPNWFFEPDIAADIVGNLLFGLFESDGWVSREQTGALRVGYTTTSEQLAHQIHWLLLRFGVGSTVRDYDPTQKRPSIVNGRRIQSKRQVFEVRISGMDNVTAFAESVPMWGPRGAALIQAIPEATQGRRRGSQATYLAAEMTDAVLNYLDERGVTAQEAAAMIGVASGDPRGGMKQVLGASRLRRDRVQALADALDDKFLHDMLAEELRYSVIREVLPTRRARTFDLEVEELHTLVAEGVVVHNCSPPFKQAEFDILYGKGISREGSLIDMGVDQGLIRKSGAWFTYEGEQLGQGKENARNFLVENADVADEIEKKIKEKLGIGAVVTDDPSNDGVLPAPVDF
Mtb bLac sens: beta-lactam sensitization of Mtb H37Rv | M. tuberculosis H37Rv growth with meropenem, percent inhibition; hits of this screen are not shown here | inhibition, % at 25 µM | 330,000 tested, 0.27% active | AID 434955;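 active = about 74% or more and at least 40 points above the plate without the antibiotic, then above 30% in a dose series; inconclusive = first-round hits that could not be retested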;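 also: growth measured after seven days incubation then overnight dye step; 0% = bacteria only wells and 100% = bacteria with antibiotic; twin plates without the antibiotic show which effects depend on it; some results filed as inactive read as strong as hits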
YopH inh: YopH (Yersinia) phosphatase inhibition. 140,000 tested, 0.16% active. inhibition, %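 (about 10 µM by stock and volumes)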. fluorescence Ex485/Em525;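 active = inhibition of 50% or more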;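 also: controls were vehicle for no effect and minimum signal wells for full effect; inactives centre near -20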
Arbovirus anti: antivirals against arbovirus infection; 200,000 tested, 0.37% active; inhibition, % at 10 µM; arbovirus infection cell-based antiviral screen;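 active = inhibition from about 30%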;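 also: bluetongue infection of BSR cells; cell survival read as ATP light after 72 h; 0% = infected wells without compound and 100% = uninfected wells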
Mtb growth: M. tuberculosis H37Rv growth inhibitors, H37Rv strain (AID 1626); M. tuberculosis H37Rv growth inhibition; higher % means a stronger effect; 220,000 tested, 0.95% active; inhibition, % at 10 µM; hits with a dose series show IC50 in µM;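 active = confirmed in a dose series; inconclusive = inhibition above 80% but not taken into the dose series; inactive = below 80% or under 30% at every dose of the series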;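 also: bacteria incubated seven days before Alamar blue readout; 0% = bacteria only wells and 100% = bacteria with antibiotic wells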
Arbovirus anti repeat: further read-out of Arbovirus anti, marked with its call; inhibition, %; measured here: 10K subset replicate screen; many hits read low in the repeat;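 first of two repeat runs on a subset; 0% = infected and 100% = uninfected wells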
Active calls of the source: *. An excerpt; count on the stated rates, not on these rows.

How did CCN1C(=O)[C@@H]2[C@@H](c3ccc(-c4cccc(Cl)c4)c(OC)c3)N3CCCC[C@@]3(C(=O)OC)[C@@H]2C1=O do in these assays?
RecA intein inh: 5.7; Mtb bLac sens: 10

What do the screens show for `CCOc1ccc(NS(=O)(=O)c2ccc3c(c2)N(C(C)=O)CCS3)cc1`?
RecA intein inh: 0.0; Mtb bLac sens: 4

Results for CCCCN(CC)S(=O)(=O)c1ccc(C(=O)N=c2sc3cc(NC(C)=O)ccc3n2C)cc1 ?
RecA intein inh: -1.3; Mtb bLac sens: 63; YopH inh: -35; Arbovirus anti: -35; Mtb growth: 15%

What do the screens show for `Brc1cnc(N2CCCC2)nc1N1CCOCC1`?
RecA intein inh: 14; Mtb bLac sens: -1; YopH inh: -26; Arbovirus anti: 1; Mtb growth: 2%

Results for CC1(C)OC(=O)C(=CNCCc2ccc(O)cc2)C(=O)O1 ?
RecA intein inh: -3.9; Mtb bLac sens: 1; Arbovirus anti: -2; Mtb growth: -1%

How did Cc1ccc(NC(=O)/C=C/C(=O)O)c([N+](=O)[O-])c1 do in these assays?
RecA intein inh: 4.0; Mtb bLac sens: -2; YopH inh: -19; Arbovirus anti: -16; Mtb growth: 87%

Results for CCOC(=O)c1c(C)c(C(=O)NCc2ccco2)c(C)n1C ?
RecA intein inh: -1.4; Mtb bLac sens: -1; Arbovirus anti: -25; Mtb growth: -3%

Results for CCc1ccc(NC(=O)Cn2nc(C(F)(F)F)c3c2CCC3)cc1 ?
RecA intein inh: 0.9; Mtb bLac sens: -7; YopH inh: -108; Arbovirus anti: -3; Mtb growth: 3%

How did CCn1c(C)nc2cc(C(=O)N=Nc3c(O)[nH]c4c(C)cc(C)cc34)ccc21 do in these assays?
RecA intein inh: 1.0; Mtb bLac sens: -1; YopH inh: -22; Arbovirus anti: -5; Mtb growth: 5%

Results for O=C(Cc1cccs1)N/N=C/C=C/c1ccccc1 ?
RecA intein inh: 0.5; Mtb bLac sens: -3; YopH inh: -20; Arbovirus anti: -3; Mtb growth: -1%

Results for CN(C(=O)CCn1c(=S)oc2ccccc21)c1ccc(F)cc1 ?
RecA intein inh: 0.6; Mtb bLac sens: -8; Arbovirus anti: 9; Mtb growth: 5%

How did Cc1ccc(O)c(Nc2c3ccccc3nc3ccccc23)c1 do in these assays?
RecA intein inh: -30; Mtb bLac sens: 2

How did COc1cccc(N2CCN(C3CC(=O)N(c4ccc(C)c(Cl)c4)C3=O)CC2)c1 (centres undefined) do in these assays?
RecA intein inh: -3.7; Mtb bLac sens: 2; YopH inh: -34; Arbovirus anti: 0; Mtb growth: -2%

How did C=CCn1c(C)c(/C=C/c2cc[n+](C)cc2)c2ccccc21 do in these assays?
RecA intein inh: -30; Mtb bLac sens: -8

Results for CN1c2ccccc2C(=O)/C(=C\Nc2ccc(F)cc2F)S1(=O)=O ?
RecA intein inh: -2.2; Mtb bLac sens: -2; Mtb growth: 16%

How did Cc1ccc(N(C(=O)Cn2nnc3ccccc32)C(C(=O)NCc2ccccc2)c2ccccn2)cc1 (centres undefined) do in these assays?
RecA intein inh: 0.9; Mtb bLac sens: -1; YopH inh: -15; Arbovirus anti: 0; Mtb growth: 5%

What do the screens show for `CC(NC(=O)CC(c1ccccc1)c1cc(Cl)ccc1O)c1ccccc1` (centres undefined)?
RecA intein inh: 18; Mtb bLac sens: 6; YopH inh: -18; Arbovirus anti: -25; Mtb growth: 0%

What do the screens show for `Cc1ccc(C2CC(=O)Nc3sc(C(N)=O)c(N)c32)cc1` (centres undefined)?
RecA intein inh: -7.2; Mtb bLac sens: -6; YopH inh: 35; Arbovirus anti: 13; Mtb growth: -1%

How did O=C1CCN(Cc2ccc(O)cc2)CCN1[C@H](CO)Cc1ccccc1 do in these assays?
RecA intein inh: -5.4; Mtb bLac sens: -7

How did O=C1N(c2ccc(Cl)c(Cl)c2)CN(Cc2ccccc2)CN1n1cnnc1 do in these assays?
RecA intein inh: -2.9; Mtb bLac sens: -11; YopH inh: -33; Arbovirus anti: -1; Mtb growth: -4%

What do the screens show for `Cc1ccc(S(=O)(=O)N(C)c2ccccc2C(=O)Nc2ccc(F)cc2F)cc1`?
RecA intein inh: 0.1; Mtb bLac sens: -5

What do the screens show for `COc1cc(/C=C/c2ccc3cccc(OC)c3n2)c(O)c([N+](=O)[O-])c1`?
RecA intein inh: -0.8; Mtb bLac sens: -5; Arbovirus anti: -4; Mtb growth: 5%

How did N#CC1(NC(=O)COC(=O)c2cccc(-n3cnnn3)c2)CCCCC1 do in these assays?
RecA intein inh: -2.7; Mtb bLac sens: -10

How did COc1ccc(CCNC(=O)CN2C(=O)CCSc3ccccc32)c(OC)c1 do in these assays?
RecA intein inh: 0.6; Mtb bLac sens: 4

Results for O=C(NCc1ccccc1)c1nc(S(=O)(=O)Cc2ccccc2)ncc1Cl ?
RecA intein inh: 77*; Mtb bLac sens: 1

Results for NC(N)=Nc1nc(CSCC/C(N)=N/S(N)(=O)=O)cs1 ?
RecA intein inh: -4.0; Mtb bLac sens: -3; YopH inh: -6; Arbovirus anti: 6; Mtb growth: -3%

What do the screens show for `CCCn1nc(C(=O)OCn2nnc3ccccc3c2=O)c2ccccc2c1=O`?
RecA intein inh: -1.5; Mtb bLac sens: 2; YopH inh: -9; Arbovirus anti: -11; Mtb growth: 5%

How did Cc1ccc(N(C)S(=O)(=O)c2cccc(C(=O)Oc3ccc4c(C)cc(=O)oc4c3)c2)cc1 do in these assays?
RecA intein inh: 1.0; Mtb bLac sens: -3; YopH inh: -20; Arbovirus anti: 7; Mtb growth: inconclusive

What do the screens show for `CCN(CC)CCNc1nc2ccccc2n1C`?
RecA intein inh: -2.1; Mtb bLac sens: -6; YopH inh: 15; Arbovirus anti: 7; Mtb growth: 0%

How did Cc1ccc(Cn2nnnc2CN2CCC(NC(=O)c3ccccc3F)CC2)cc1 do in these assays?
RecA intein inh: 3.1; Mtb bLac sens: -8; YopH inh: -5; Arbovirus anti: 0; Mtb growth: -1%

Results for Cc1cc(Nc2cc(F)ccc2C)n2nc(C)nc2n1 ?
RecA intein inh: -0.3; Mtb bLac sens: -2; YopH inh: -27; Arbovirus anti: 1; Arbovirus anti repeat: 1

How did COc1ccc(S(=O)(=O)N2CCOC2CNC(=O)C(=O)NCc2ccc(F)cc2)cc1 (centres undefined) do in these assays?
RecA intein inh: 2.6; Mtb bLac sens: -6

What do the screens show for `CCc1ccc(Sc2cc(C(=O)NCCN3CCOCC3)c3ccccc3n2)cc1`?
RecA intein inh: 0.3; Mtb bLac sens: -1; YopH inh: -15; Arbovirus anti: 8; Mtb growth: 8%

Results for CC(C)CN(CCNC(=O)CN1C(=O)CSc2ccc(S(=O)(=O)N3CCOCC3)cc21)CC(C)C ?
RecA intein inh: 1.9; Mtb bLac sens: 1; Arbovirus anti: -8; Mtb growth: 0%

Results for COc1cc(/C=N/n2cnnc2)ccc1OS(=O)(=O)c1ccccc1[N+](=O)[O-] ?
RecA intein inh: 1.2; Mtb bLac sens: 2; YopH inh: -9; Arbovirus anti: 4; Mtb growth: 14%

What do the screens show for `CCn1c(C(=O)N2CCC(C(=O)NCc3ccc4c(c3)OCO4)CC2)cc2sccc21`?
YopH inh: -30; Arbovirus anti: -2; Mtb growth: 6%

Pulled by structure from above:
How did Cc1ccc(NC(=O)/C=C/C(=O)O)c([N+](=O)[O-])c1 do in these assays?
RecA intein inh: 4.0; Mtb bLac sens: -2; YopH inh: -19; Arbovirus anti: -16; Mtb growth: 87%

What do the screens show for `Cc1ccc(S(=O)(=O)N(C)c2ccccc2C(=O)Nc2ccc(F)cc2F)cc1`?
RecA intein inh: 0.1; Mtb bLac sens: -5

How did O=C1CCN(Cc2ccc(O)cc2)CCN1[C@H](CO)Cc1ccccc1 do in these assays?
RecA intein inh: -5.4; Mtb bLac sens: -7

(list continues)
Results for Cc1ccc(S(=O)(=O)c2nc(-c3ccccc3)oc2N2CCC(C(N)=O)CC2)cc1 ?
RecA intein inh: -0.2; Mtb bLac sens: 1

What do the screens show for `Cc1ccsc1/C=N/NC(=O)c1ccc2nc[nH]c2c1`?
RecA intein inh: 1.9; Mtb bLac sens: -7; YopH inh: -20; Arbovirus anti: -7; Mtb growth: -6%

What do the screens show for `O=C(O)CCCCCN1C(=O)/C(=C\c2cn(-c3ccccc3)nc2-c2cccs2)SC1=S`?
RecA intein inh: -0.3; Mtb bLac sens: 3; Mtb growth: 1%

Results for N/C(=N\OC(=O)C1CCCCC1)c1ccccn1 ?
RecA intein inh: 1.2; Mtb bLac sens: 10; YopH inh: -26; Arbovirus anti: -3; Mtb growth: 2%

Results for CC(=O)C(Sc1nnnn1-c1ccccc1)C(C)=O ?
RecA intein inh: 2.1; Mtb bLac sens: 9; Mtb growth: 4%

What do the screens show for `COc1ccc(/C=N/NC(=O)CN2CCS(=O)(=O)CC2)cc1`?
RecA intein inh: 0.6; Mtb bLac sens: 0; YopH inh: -36; Arbovirus anti: 7; Mtb growth: -4%

How did Cn1c(=O)c2c(ncn2CC(=O)N2CCN(c3ccc([N+](=O)[O-])cc3)CC2)n(C)c1=O do in these assays?
Mtb bLac sens: -3; Mtb growth: 1%

Results for COC(=O)CC(CP(=O)(O)CN(C)C=O)C(=O)OC (centres undefined) ?
RecA intein inh: -3.1; Mtb bLac sens: -4; Mtb growth: -5%

What do the screens show for `Cc1ccc(C(=O)NC(=S)Nc2ccc3[nH]c(=O)[nH]c3c2)cc1`?
RecA intein inh: 1.3; Mtb bLac sens: 2; YopH inh: 5; Arbovirus anti: -8; Mtb growth: 3%

How did CCOc1ccccc1N(CC(=O)Nc1ccc(OC)c(OC)c1)S(=O)(=O)c1ccccc1 do in these assays?
RecA intein inh: -2.2; Mtb bLac sens: -2

What do the screens show for `Nn1cnc2sc3c(c2c1=O)CCC3`?
RecA intein inh: -5.5; Mtb bLac sens: 2; YopH inh: 0; Arbovirus anti: 1; Mtb growth: -1%

How did O=[N+]([O-])c1ccc(NCc2ccccc2)nc1 do in these assays?
RecA intein inh: 2.5; Mtb bLac sens: 7; YopH inh: 12; Arbovirus anti: 1; Mtb growth: 18%

How did O=C(COc1ccccc1)Nc1ccc2c(c1)C(=O)N(CC1CCCO1)C2=O (centres undefined) do in these assays?
RecA intein inh: 0.5; Mtb bLac sens: -3; Arbovirus anti: 2; Mtb growth: 2%

Results for O=C(C1Cc2ccccc2CN1S(=O)(=O)c1ccc(F)cc1)N1CCOCC1 (centres undefined) ?
RecA intein inh: 0.9; Mtb bLac sens: -3; YopH inh: -8; Arbovirus anti: 8; Mtb growth: -9%

How did CCCCCCN(C(=O)CCCCCN1C(=O)NC(c2ccc(-c3ccccc3)cc2)C(C(=O)OCc2ccccc2)=C1C)C(C(=O)NCCCC)c1ccc(-c2ccccc2)cc1 (centres undefined) do in these assays?
RecA intein inh: 0.8; Mtb growth: -3%

What do the screens show for `COc1ccccc1CNC(=O)COC(=O)c1ccc(Cl)c(N)c1`?
RecA intein inh: -2.4; Mtb bLac sens: -3; Arbovirus anti: 6; Mtb growth: 3%

What do the screens show for `COc1ccc2[nH]c(=O)c(CN(CC3CCCO3)C(=O)Nc3ccccc3OC)cc2c1` (centres undefined)?
RecA intein inh: 2.6; YopH inh: -48; Arbovirus anti: -14; Mtb growth: -5%

Results for CCN1c2ccccc2NC2C1C(C(C)=O)C(=O)N2c1ccc(Cl)cc1 (centres undefined) ?
RecA intein inh: -5.5; Mtb bLac sens: 4; YopH inh: -44; Arbovirus anti: 11; Mtb growth: 8%; Arbovirus anti repeat: -4

How did COc1ccc2[nH]cc(CC(=O)O)c2c1 do in these assays?
Mtb bLac sens: -4; YopH inh: -26; Arbovirus anti: 3; Mtb growth: 12%

How did CCOC(=O)C1CCN(C(=O)C2COc3ccccc3O2)CC1 (centres undefined) do in these assays?
RecA intein inh: -1.5; Mtb bLac sens: 1

What do the screens show for `O=C1c2ccccc2CCC12N=NCC2c1ccccc1` (centres undefined)?
RecA intein inh: 7.4; Mtb bLac sens: 2; YopH inh: -10; Arbovirus anti: 6; Mtb growth: 4%

How did CCOC(=O)Cn1nc(C)n(-c2ccc(C(C)C)cc2)c1=O do in these assays?
RecA intein inh: -0.8; Mtb bLac sens: 3; YopH inh: -15; Arbovirus anti: 11; Mtb growth: 1%

What do the screens show for `O=c1cc(CN2CCC(Cc3ccccc3)CC2)nc2sccn12`?
RecA intein inh: 0.2; Mtb bLac sens: -6; Arbovirus anti: 3; Mtb growth: 9%

What do the screens show for `CC(C)N1C(=S)SC(C)(C)C1NO` (centres undefined)?
RecA intein inh: 1.6; Mtb bLac sens: 12; YopH inh: -20; Arbovirus anti: 7; Mtb growth: -2%

How did Cc1ccc(SC/C(O)=C(\C#N)c2nc3ccccc3n2C)cc1 do in these assays?
RecA intein inh: -3.2; Mtb bLac sens: 90; YopH inh: -10; Arbovirus anti: -12; Mtb growth: 90%

Source: PubChem BioAssay (several laboratories)
